# NPR1 antag: antagonists of human natriuretic peptide receptor Npr1 | P16066 | HEK293 hNpr1 GloSensor cGMP, ANP-stimulated luminescence | Potency, µM (series often up to 46.3 µM), for the others: at the highest dose activity change, negative = inhibition, most hits filed as inhibitors | 76,000 compounds, 1.6% hits | AID 1347048; active = well fitted inhibition curve with a large enough effect; inconclusive = small, poorly fitted or top-dose-only effect; inactive = no such curve, though single readings can be large or run the other way;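 also: nearly all actives have a fitted effect of over 60% in size; nearly all hits also lower the signal before the agonist is added; a reference antagonist and vehicle were the controls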
# Target sequence (P16066 whole entry, looked up): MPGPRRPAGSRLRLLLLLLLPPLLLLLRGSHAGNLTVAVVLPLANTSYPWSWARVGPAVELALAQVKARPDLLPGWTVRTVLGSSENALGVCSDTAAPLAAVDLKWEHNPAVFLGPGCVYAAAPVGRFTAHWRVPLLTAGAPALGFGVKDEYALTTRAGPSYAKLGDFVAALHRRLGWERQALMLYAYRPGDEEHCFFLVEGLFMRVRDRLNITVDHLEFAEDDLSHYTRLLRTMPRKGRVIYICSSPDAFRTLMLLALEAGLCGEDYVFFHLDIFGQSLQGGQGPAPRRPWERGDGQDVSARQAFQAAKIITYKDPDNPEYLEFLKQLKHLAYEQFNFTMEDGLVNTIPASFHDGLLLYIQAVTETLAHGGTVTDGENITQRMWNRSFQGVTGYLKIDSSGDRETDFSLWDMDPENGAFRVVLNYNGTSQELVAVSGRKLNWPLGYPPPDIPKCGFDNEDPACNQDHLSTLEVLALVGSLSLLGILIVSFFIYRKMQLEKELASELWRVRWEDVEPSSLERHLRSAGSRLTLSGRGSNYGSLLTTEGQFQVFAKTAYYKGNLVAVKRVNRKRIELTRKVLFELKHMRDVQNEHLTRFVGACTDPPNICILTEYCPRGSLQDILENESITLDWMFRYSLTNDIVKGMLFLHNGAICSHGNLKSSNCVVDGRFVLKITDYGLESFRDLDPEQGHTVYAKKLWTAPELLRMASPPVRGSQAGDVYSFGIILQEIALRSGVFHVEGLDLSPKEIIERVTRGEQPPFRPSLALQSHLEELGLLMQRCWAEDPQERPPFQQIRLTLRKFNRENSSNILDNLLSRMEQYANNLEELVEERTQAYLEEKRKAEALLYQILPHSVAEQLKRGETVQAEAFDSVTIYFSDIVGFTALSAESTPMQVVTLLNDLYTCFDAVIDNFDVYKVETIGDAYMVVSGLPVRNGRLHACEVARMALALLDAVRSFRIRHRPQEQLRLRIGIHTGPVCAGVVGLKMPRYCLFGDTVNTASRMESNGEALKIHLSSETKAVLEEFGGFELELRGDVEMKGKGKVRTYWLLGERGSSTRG
#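 Compound pre-incubated 30 min at room temperature on GloSensor-loaded HEK293 cells stably carrying hNpr1 and the pGS-40F cGMP biosensor. Stimulation uses hNppA at 0.1 nM final; luminescence is taken at baseline and 20 min post-agonist.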
# The depositor's hits bear a star; ? = inconclusive; [ ] = dose if it differs, or a comment. % is scaled to controls: 0 for no effect and ±100 for the full control effect; potency is read from the fitted curve at half-maximal effect. The list is partial. The share of hits here may be higher or lower than overall.
SMILES,NPR1 antag
CCc1n[nH]c(CC2CCN(C(=O)C3(c4ccccc4)CC3)CC2)n1,11%
Cc1ncoc1C(=O)N1CCC2(CCCN(CC3CCCCC3)C2=O)C1 (stereo unspecified),7%
CNc1nc(C(=O)N2CCc3nc(-c4ccccc4)[nH]c3C2)cs1,3%
C#CCN(C)Cc1nc(C2(O)CCN(C(=O)Cc3ccccc3)CC2)cs1,5%[70.6 µM]
CC(C)N1CCN(C2CCOC3(CCN(S(=O)(=O)c4cn(C)cn4)CC3)C2)CC1 (stereo unspecified),1%
COc1cccc(-c2ccc3c(n2)c(=O)ncn3CC2CC2)c1,4%[70.6 µM]
Cc1ccc(CN(C)C(=O)c2coc(COc3ccc(F)cc3Cl)n2)cc1,3%
COc1ccc(C2Cn3nnc(-c4nc(C5CCCCC5)no4)c3CO2)cc1 (stereo unspecified),?
Cc1cc(C(=O)NCC2Cn3cccc3C(=O)N2C)nn1C (stereo unspecified),-1%
Cc1ccc(CNC(=O)Cn2cccc2-c2nc(-c3ccc4c(c3)OCO4)no2)cc1,1%
CN(CC(=O)N1CCc2nc3cc(-c4ccccc4)[nH]n3c(=O)c2C1)S(=O)(=O)c1cnc[nH]1,1%
COc1cccc(CN2CCOc3ccc(C(=O)NCc4ccc(C)cc4)cc3C2)n1,-12%
COc1ccc(C)cc1NC(=O)NCC1CCCN(C(C)C)C1 (stereo unspecified),3%
COc1cccc(NC(=O)c2cnc3n[nH]c(-c4ccc(OC)cc4C)c3n2)c1,-5%[70.6 µM]
Cc1ccc(OCC(=O)N2CCC[C@H]2c2nc(-c3ccc(C)cc3)no2)cc1,-22%
CC(C)CCN1CCC(O)(c2csc(CN3CC[C@@H](O)C3)n2)CC1,0%[70.6 µM]
CN(C)CCNC(=O)C1(C)CN(Cc2ccccc2)Cc2ccc(N3CCOCC3)nc21 (stereo unspecified),-2%[70.6 µM]
O=C(Nc1ccc([C@@H](O)[C@H]2COCC(=O)N2CC2CCCCC2)cc1)C1CC1,-5%[70.6 µM]
CNC(=O)N1CCC(C2CCN(C(=O)Cc3ccsc3)C2)CC1 (stereo unspecified),1%
CN1CCOc2c(C(=O)NCCc3cnc[nH]3)cc(-c3cccnc3)cc21,-3%[70.6 µM]
O=C(c1ccccn1)N1CCC(N2CCCC2=O)CC1,12%[70.6 µM]
COc1ccccc1C(=O)N1C[C@@H](F)C[C@H]1C(=O)N1CCOCC1,-2%
COC[C@@H]1CN(CCCc2ccccc2)C[C@H]1C(N)=O,11%
CN(C)[C@H]1CCCCN(C(=O)CCc2ccc(-c3ccc(Cl)cc3)[nH]2)C1,-9%
CCc1ccc(N2CC(c3noc(-c4cnccn4)n3)CC2=O)cc1 (stereo unspecified),-1%
Cc1nc(-c2c3n(c(=O)n(Cc4ccccc4C(F)(F)F)c2=O)CCCCC3)no1,1%
COc1ccc(NC(=O)N2CCc3c(c4ccccc4n3C)C2)cc1,-3%
O[C@@H]1C[C@@H](c2nc(-c3cnccn3)no2)N(Cc2ccc(F)cc2)C1,-3%[70.6 µM]
COc1ccc(C2=NOC3(CCN([S+](=O)([O-])c4cccc(OC)c4)C3)C2)cc1 (stereo unspecified),13µM*
O=C(c1nc2sccn2c1Br)N1CCC(N2CCCNC2=O)CC1,2%
C=CCNC(=O)c1cccc2c(C)nnn12,-15%[70.6 µM]
COCCNC(=O)c1ccc2c(c1)N(C)C(CC(=O)N1CCC(C)CC1)CO2 (stereo unspecified),0%
COc1ccc(C(=O)N2CCC3(CC2)CC(=O)Nc2ccccc2O3)cc1,13µM*
CCN(CC)Cc1nc(C2(O)CCN(C)CC2)cs1,10%[70.6 µM]
COc1ccccc1OCCNC(=O)C1CCN(c2cc(C(F)(F)F)ncn2)CC1,?
CCNC(=O)N[C@H]1[C@H](O)[C@H](O)C[C@@H]1c1ccc(C)cc1,5%[70.6 µM]

# Records above marked active in NPR1 antag.
SMILES,NPR1 antag
COc1ccc(C2=NOC3(CCN([S+](=O)([O-])c4cccc(OC)c4)C3)C2)cc1 (stereo unspecified),13µM*
COc1ccc(C(=O)N2CCC3(CC2)CC(=O)Nc2ccccc2O3)cc1,13µM*

# (more compounds)
SMILES,NPR1 antag
Fc1ccc(-c2cnc3n[nH]c(-c4ccccc4)c3n2)cc1,-2%[70.6 µM]
CC1(C)[C@H](Cc2cc(CN3CCOCC3)on2)C[C@@H]1NS(C)(=O)=O,-4%[70.6 µM]
CC(C)(C)C1CCC2(CC1)NC(=O)N(CC(=O)Nc1ccc3c(c1)OCCO3)C2=O (stereo unspecified),0%
CN1CCCN(C(=O)c2nc3sccn3c2CN2C[C@]3(C)C[C@H]2CC(C)(C)C3)CC1,0%
CNCCN1C(=O)CC[C@H]2CN(C(=O)Cc3c(C)noc3C)CC[C@H]21,13%
CC(C)[C@@H](C(N)=O)N1CC[C@H]2CN(C(=O)Nc3ccccc3)CC[C@H]2CC1=O,7%[70.6 µM]
COc1cncc([C@@H](NC2CSCCSC2)C2CC(O)C2)c1 (stereo partly specified),12%
COc1ccc(-c2ccc3c(n2)CN(Cc2ccccc2F)C(=O)CO3)cc1OC,-16%[70.6 µM]
O=C(c1ccc(=O)[nH]c1)N(CC1CCN(Cc2ccccc2F)CC1)CC1CCCO1 (stereo unspecified),1%
O=C(NCCc1ccccc1)C1CN(S(=O)(=O)c2cccnc2)CC12CCCCC2 (stereo unspecified),-11%
O=C(CCc1cc(Cl)no1)N1CCCC(Cc2nncn2Cc2ccccc2)C1 (stereo unspecified),-1%
Cc1ccc2c(c1)N1C(=O)OC[C@@H]1CCN(C(C)C)C2,-16%[70.6 µM]
CCOc1c(OC)cccc1-c1nc2ccc(-c3ccc(OC)c(OC)c3OC)cc2o1,-2%
Clc1ccc(C2Cn3nnc(-c4nc(-c5ccccn5)no4)c3CO2)cc1 (stereo unspecified),-14%
COc1ccc(C(=O)Nc2ccc3c(c2)CN(Cc2cccc(OC)c2OC)C(=O)CO3)cc1OC,3%
COc1cc(F)ccc1-c1nc(N2CCOCC2)cc2c1CN(CC1CC1)C2=O,-2%[70.6 µM]
Cc1ccsc1CN1CCCN(S(C)(=O)=O)C(c2ccccc2)CC(=O)NCC1 (stereo unspecified),2%
O=C1Nc2ccc(-c3cccc(C(F)(F)F)c3)cc2C(=O)N2CCN(C(=O)c3ccccc3)C[C@H]12,?
COc1ccc(C(=O)N[C@@H]2CCC[C@@H]2C(=O)N2CCN(c3ccccn3)CC2)cc1,2%
C[C@@H]1CN(C(=O)Cc2ccc3c(c2)OCO3)C[C@]1(C)O,2%
CN(C)c1nccnc1OC1CCN(C(=O)c2ccccc2)C1 (stereo unspecified),-1%
COCCN1C(=O)[C@@H]2C[C@@H](CN2Cc2ccc3ccccc3n2)Oc2ccccc21,-16%[70.6 µM]
COc1ccccc1C(=O)N1CC(Oc2cccc(-c3nc(-c4ccccc4)no3)c2)C1,-10%
COc1ccc(C(=O)N2C[C@@H]3CC[C@H](C2)N(Cc2cscn2)C3=O)o1,3%
COc1ccc(NC(=O)c2ccc3c(c2)NC(C)(COCC2CC2)CO3)cn1 (stereo unspecified),-20%[70.6 µM]
CN1C(=O)[C@@H]2C[C@@H](CN2Cc2ccccc2F)Oc2ccccc21,0%[70.6 µM]
CCOc1cc(C(=O)NC2CCN(c3cc(-c4ccc(F)cc4)[nH]n3)CC2)cc(OCC)c1OCC,1%
O=C(NC[C@H]1O[C@H](Cc2cc(-c3ccc(F)cc3)on2)CC[C@@H]1O)C1CCC1,-15%[70.6 µM]
CCCCOc1ccc(C(=O)N2CCC[C@H]2c2nc(-c3ccc(F)cc3)no2)cc1,-10%
CC(=O)c1ccc(NC(=O)Cn2c(=O)n(-c3ccc(F)cc3)c(=O)c3c2cc(C)n3C)cc1,-13%
CNC(=O)[C@H]1C[C@H](Oc2cccnc2)CN1C(=O)c1cccc(OC)c1,-6%
CC(=O)N1CCN(c2nc3c(s2)CC(C(=O)N2CCN(C4CCCC4)CC2)CC3)CC1 (stereo unspecified),2%
COCCOC1CCOC2(CCN(C(=O)c3cc(C)nn3C)CC2)C1 (stereo unspecified),0%
CC(C)CN1C(=O)c2cccn2CC1C(=O)NCCN1CCCCC1 (stereo unspecified),3%
CCc1nc(-c2c3n(c(=O)n(CC(=O)NCCCc4ccccc4)c2=O)CCCC3)no1,-7%
CN1c2cc(C(=O)N3CCN(c4ccc(F)cc4)CC3)ccc2C(=O)N2CCCCCC21 (stereo unspecified),-13%

# 7 compounds from above, sorted by the number in NPR1 antag, largest number first:
compound	NPR1 antag
COc1ccc(C(=O)Nc2ccc3c(c2)CN(Cc2cccc(OC)c2OC)C(=O)CO3)cc1OC	3%
CNC(=O)N1CCC(C2CCN(C(=O)Cc3ccsc3)C2)CC1 (stereo unspecified)	1%
COCCNC(=O)c1ccc2c(c1)N(C)C(CC(=O)N1CCC(C)CC1)CO2 (stereo unspecified)	0%
CCOc1c(OC)cccc1-c1nc2ccc(-c3ccc(OC)c(OC)c3OC)cc2o1	-2%
CCc1nc(-c2c3n(c(=O)n(CC(=O)NCCCc4ccccc4)c2=O)CCCC3)no1	-7%
COc1cccc(CN2CCOc3ccc(C(=O)NCc4ccc(C)cc4)cc3C2)n1	-12%
CC(=O)c1ccc(NC(=O)Cn2c(=O)n(-c3ccc(F)cc3)c(=O)c3c2cc(C)n3C)cc1	-13%

# Going on with the list:
SMILES,NPR1 antag
COc1ccccc1C(=O)NC1CCN(c2cc(-c3ccccc3)[nH]n2)C1 (stereo unspecified),-12%
O=C(c1ccc2[nH]ccc2c1)N1CC(CO)C2(CCNCC2)C1 (stereo unspecified),3%
Cc1cccc(N2CCN(C(=O)c3noc(-c4ccc[nH]c4=O)n3)CC2)c1C,-6%
COCCOc1ccc2c(n1)CCN(C(=O)c1cnccn1)C2,-1%
COc1cccc(S(=O)(=O)N2CCC(C(=O)N3CCCCCCNC(=O)CC3)CC2)c1,3%
CN1C[C@@H](F)[C@@H](OCc2nc3ccc(F)cc3[nH]2)C1,0%[70.6 µM]
CCCNc1cc(N2CCC(CCC(=O)NCC3CC3)CC2)ncn1,-10%
O=C(CN1C(=O)NC2(CCOCC2)C1=O)NC1CCCC1,4%
CC(C)n1c(CN2CCC3(CCCN(C)C3=O)C2)nc2ccccc21 (stereo unspecified),5%
CCN(CC)C(=O)N1CCCCCCNC(=O)[C@@H]2CCC[C@@H]21,-1%
CN1C(=O)CC[C@]2(C(=O)NCc3ccco3)CCCC[C@@H]12,-10%
O=C(N[C@@H]1CCN(C(=O)Cc2noc3ccccc23)C[C@H]1O)c1cccnc1,5%
COc1ccc(NC(=O)[C@@H]2C[C@@H](c3ccc(F)cc3)N([S+](=O)([O-])c3ccccc3)C2)cn1,2%
Cc1ccc(C(=O)NC2CCCN(c3cc(-c4ccccc4)[nH]n3)C2)cc1F (stereo unspecified),-18%
CCCN1CCCC2(CCN(C(=O)c3conc3-c3ccccc3)C2)C1=O (stereo unspecified),2%
CN1CCN([C@H]2CCN(Cc3ccc(C#CCO)cc3)C[C@H]2CCC(=O)O)CC1,4%
CCNC(=O)[C@@H]1C[C@H](NC(=O)c2ncoc2C)CN1CCCn1cnnn1,5%
CCN1c2cc(C(=O)Nc3cc(C)cc(C)c3)ccc2C(=O)N2CCCCC21 (stereo unspecified),-4%
COC1C(=O)N(c2cccc(F)c2)C12CCN(S(=O)(=O)c1ccc(C#N)cc1)CC2 (stereo unspecified),-4%
COCC1CN(C(C)=O)CC12CCN(Cc1ccccc1OC(C)C)CC2 (stereo unspecified),3%
COC[C@@H]1CNC[C@H]1c1nc(C)no1,-4%
Cc1ccc(C(=O)NC2CC(C)(C)Cc3nc(N4CCOCC4)ncc32)cn1 (stereo unspecified),-2%
O=C1CO[C@H]2CN(Cc3ccccc3F)C[C@H]2N1c1ccccc1,-4%[70.6 µM]
Cc1ccc(NC(=O)N2CC3CC(C2)[C@H]2CCCC(=O)N2C3)cc1F (stereo partly specified),5%
CN(C)C(=O)c1ccc2c(c1)N(C)C(CC(=O)Nc1ccc[nH]c1=O)CO2 (stereo unspecified),0%
CCOc1ncccc1C(=O)N(C)Cc1nc(-c2ccccc2)no1,-1%
Cc1ccc(-c2cc(N3CCC(CNC(=O)c4cccc(N(C)C)c4)CC3)n[nH]2)cc1,-20%
N#Cc1ccc(CN2CCC3(CC2)CC(=O)Nc2ccccc2O3)cc1,3%
CCC[C@@H]1CN(Cc2cc(OC)c(SC)cc2OC)C[C@H]1NC(C)=O,3%
O=C1NCCCCCCN(C(=O)CCc2nc3ccccc3s2)[C@H]2CCC[C@@H]12,2%
O=C(c1cc2ccccc2[nH]1)N1CCCC2(C1)NC(=O)N(Cc1ccccc1)C2=O (stereo unspecified),-1%
CCn1ccc(C(=O)N2C[C@@H](Oc3cccnc3)C[C@H]2C(=O)NC)n1,-4%
COc1cccc(CC(=O)N2C[C@@H](F)C[C@H]2C(=O)N2CCOCC2)c1,3%
CCNC(=O)[C@@H]1C[C@H](NC(=O)c2ccc[nH]2)CN1C(=O)CCn1cnnn1,1%
Cn1ncc(CN2CC[C@@H]3[C@@H](CCC(=O)N3CCCN)C2)c1C1CC1,8%
COc1cc(OC)cc(C(=O)N2CCCC(n3cc(-c4noc(C)n4)nn3)C2)c1 (stereo unspecified),-14%
CCc1noc(-c2ccn3c(CNC(=O)c4ccccc4Cl)nnc3c2)n1,8%
O=C(C1CCCO1)N1CCOc2ccc(CN3CCc4ccccc4C3)cc2C1 (stereo unspecified),-2%
O=C(CC1COCCN1)N(CCc1c[nH]c2ccccc12)C1CCCCC1 (stereo unspecified),-1%
O=C1CCN(S(=O)(=O)c2ccccc2)CCCN(C(=O)c2ccc(Cn3cncn3)o2)CCN1,10%
Nc1nc(C2CC(N)C2)cc(N2CCC(C(=O)NCc3ccccn3)CC2)n1 (stereo unspecified),2%
CC(=O)N1C[C@@H]2CCCN3CCC[C@@H]([C@H]23)[C@H]1CCCC(=O)NCc1ccccc1,-8%
CN(Cc1ccc(F)cc1)Cc1cccnc1,5%[70.6 µM]
CCCN1C(=O)Cc2cc(C(=O)NCc3ccc(F)cc3F)ccc21,1%

# Compound activity: PubChem, National Center for Advancing Translational Sciences (NCATS)
